# From PubChem
# D2 ag: agonists of human D2 dopamine receptor (beta-arrestin); activation, % (concentration not given with the values); 360,000 compounds, 0.084% hits; DiscoveRx PathHunter D2 beta-arrestin, luminescence, 90 min; 100% = 57 uM dopamine signal; AID 624465; in the data active = activation above about 40%; inconclusive = about 15% to 40%; inactive = below about 15%; note: the text of the record calls up to 30% inactive
# Target sequence (P14416 whole entry, looked up): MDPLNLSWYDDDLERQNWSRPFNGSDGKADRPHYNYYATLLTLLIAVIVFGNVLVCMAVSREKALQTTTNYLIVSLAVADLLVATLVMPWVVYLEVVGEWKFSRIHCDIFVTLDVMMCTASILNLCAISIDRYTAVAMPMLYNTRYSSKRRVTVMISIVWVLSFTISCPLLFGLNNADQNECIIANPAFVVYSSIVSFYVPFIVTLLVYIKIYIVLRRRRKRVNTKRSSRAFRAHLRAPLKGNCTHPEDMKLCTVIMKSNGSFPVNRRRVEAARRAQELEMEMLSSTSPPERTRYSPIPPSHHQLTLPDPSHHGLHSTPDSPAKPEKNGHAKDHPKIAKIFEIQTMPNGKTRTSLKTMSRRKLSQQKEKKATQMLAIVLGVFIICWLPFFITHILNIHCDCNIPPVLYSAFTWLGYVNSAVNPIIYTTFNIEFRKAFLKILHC
#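 DiscoveRx PathHunter D2 beta-arrestin cells (2,100/well) attached overnight, then compound-stimulated 90 min at 37 C in HBSS/10 mM HEPES/0.1% Tween-20 buffer; beta-galactosidase complementation read by luminescence after 1 h at ambient temperature. Dopamine 57 uM final (EC100) as control.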
# CtBP-E1A blk: inhibitors of CtBP/E1A interaction. activity change, % (test concentration not listed). 340,000 compounds, 0.49% hits. AlphaScreen GST-E1A/His-CtBP binding, 1536-well; hits give low values; control for the full effect not named in the record; in the data active means activity change below about -65%; inconclusive means about -30% to -65%; inactive means above about -30%; note: % is set by controls: 0 for no effect and ±100 for the full control effect
#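 GST-E1A and His-tagged CtBP (125 nM each as 5X stock) were preincubated with pin-transferred compound for 2 h at 37 °C in the dark, then glutathione donor and nickel acceptor beads were added for 1 h before AlphaScreen reading.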
# TRPML1 ag: human mucolipin-1 channel agonism; Q9GZU1; TRPML1-expressing cells, Ca2+ dye fluorescence, FDSS; host cell line not named in the record; reference of the full effect not given here; 410,000 compounds, 0.12% hits; activation, % (concentration not given with the values); in the data active = activation above about 50%; inconclusive = about 30% to 50%; inactive = below about 30%; note: 0% is about no effect; the text of the record puts the active cut at 80%
# Target sequence (Q9GZU1 whole entry, looked up): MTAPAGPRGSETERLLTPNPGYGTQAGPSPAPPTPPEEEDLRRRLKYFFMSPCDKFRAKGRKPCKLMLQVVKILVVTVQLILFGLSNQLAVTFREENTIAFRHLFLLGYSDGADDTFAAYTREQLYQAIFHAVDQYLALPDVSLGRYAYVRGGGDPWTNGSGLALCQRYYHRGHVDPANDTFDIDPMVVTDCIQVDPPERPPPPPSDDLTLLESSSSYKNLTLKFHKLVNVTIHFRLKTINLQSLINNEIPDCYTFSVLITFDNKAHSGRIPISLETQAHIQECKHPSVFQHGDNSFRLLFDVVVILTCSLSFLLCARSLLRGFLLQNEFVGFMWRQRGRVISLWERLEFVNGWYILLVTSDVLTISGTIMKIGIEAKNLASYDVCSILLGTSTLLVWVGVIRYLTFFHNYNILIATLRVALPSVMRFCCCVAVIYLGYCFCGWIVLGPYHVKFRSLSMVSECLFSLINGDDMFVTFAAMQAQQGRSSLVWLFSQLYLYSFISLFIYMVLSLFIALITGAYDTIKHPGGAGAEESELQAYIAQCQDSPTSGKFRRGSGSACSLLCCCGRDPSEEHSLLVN
#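 Tet-induced TRPML1-DL cells, 1,500 per well, cultured overnight, were loaded with a no-wash Ca2+ dye for 45–90 min. Calcium fluorescence was recorded on the FDSS for 110 s after compound addition, before the EC80 agonist (4 uM 54-4) was added.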
# PINK1 modulator: PINK1 expression modulation. Potency, µM (series often up to 76.6 µM), inactives show at the top dose activation (PINK1 increase), hits mostly activators. 410,000 compounds, 0.2% hits. PINK1 immunofluorescence, high-content cytometry, 24 h. AID 624263; active = well fitted activation curve with a large enough effect; inconclusive = small, poorly fitted or top-dose-only effect; inactive = flat fitted curve, though single readings scatter; cell line not stated here;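 note: potency is the fitted concentration of half-maximal effect; % of control where 0% means no effect; nearly all actives have a fitted effect of over 65% in size; a mitochondrial uncoupler was the plate control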
#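 Decision-based qHTS: stable cells, 24 h exposure to five compound concentrations, CCCP as control. Fixed cells stained for PINK1 plus nuclear, mitochondrial and cell markers, cytometer read.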
# Six1-Eya2 blk: inhibitors of human Six1/Eya2 interaction | Q15475+O00167 | AlphaScreen GST-Six1/His-Eya2 binding, biochemical; hits give low values; control for the full effect not named in the record | activity change, % (test concentration not listed) | 360,000 compounds, 0.56% hits; in the data active = activity change below about -65%; inconclusive = about -30% to -65%; inactive = above about -30%; note: % is set by controls: 0 for no effect and ±100 for the full control effect
#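 Compounds are tested against tagged Six1 and Eya2 proteins bridged by glutathione donor and nickel acceptor beads; after a one-hour incubation at 37 °C without light, AlphaScreen emission is recorded.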
# TRPML1 inh: blocks the human TRPML1 channel; Q9GZU1; TRPML1-inducible cells, Ca2+ dye fluorescence, FDSS; hits give low values; inhibition of EC80 agonist-evoked calcium signal; activity change, negative = inhibition, % (no concentration beside the values); 390,000 compounds, 0.02% hits; AID 624415; in the data active means activity change below about -50%; inconclusive means about -30% to -50%; inactive means above about -30%;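 note: stimulus is agonist 54-4 at its EC80 concentration; % is set by controls: 0 for no effect and ±100 for the full control effect; compound concentration not given in the record; the text of the record puts the active cut at -80%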
#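 Calcium fluorescence in TRPML1-DL cells induced overnight with Tet: a 110 s read after compound pin addition, then a 110 s antagonist read after challenge with 54-4 at 4 uM final (EC80).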
# Numbers without * were called inactive; ? = inconclusive; · = not tested or not shown; [ ] = dose if it differs, or a comment.
Structure	D2 ag	CtBP-E1A blk	TRPML1 ag	PINK1 modulator	Six1-Eya2 blk	TRPML1 inh
COc1ccc(S(=O)(=O)N2Cc3ccccc3CC2C(=O)Nc2cc(Cl)ccc2Cl)cc1 (stereo unspecified)	·	·	-0.1	4.0%	·	0
CC1=C(C(=O)N2CCOCC2)CC(CC(=O)NCCCN(C)C)C(=O)N1CCC1=CCCCC1 (stereo unspecified)	-1.3	6	0.3	1.2%	6	2
COc1cc(CNCCc2ccccc2)ccc1OCC(=O)NC(C)(C)C	-5.2	8	3.9	-1.5%	1	2
O=C(NCCc1ccccc1)c1cc2sccc2n1Cc1ccc(F)cc1	·	·	0.7	8.5%	·	30
O=P(c1ccccc1)(c1ccccc1)C(O)c1ccc(Br)cc1 (stereo unspecified)	1.3	1	-0.6	2.4%	-9	37
Cc1[nH]c(C)c(S(=O)(=O)N2CCN(c3ccccc3)CC2)c1C(=O)N1CCCCC1	2.7	-13	0.2	-1.9%	10	-15
Cc1cccc(CCNC(=O)c2cc(S(=O)(=O)N3CCOCC3)cn2C)c1	1.6	3	0.1	0.1%	0	-1
CCN(CC)S(=O)(=O)c1ccc(Cl)c(C(=O)NC2CCCC2)c1	-1.7	5	-0.5	-1.1%	8	-2
CCOc1ccc(CNc2ccc(N3CCN(Cc4ccccc4)CC3)cc2)cc1	2.7	?	-0.5	3.8%	?	-10
O=C(NNC(=S)NC(=O)c1cccnc1)c1ccccc1	-4.3	-10	-0.1	0.0%	-5	17
Cc1cccc(OCC(=O)Nc2ccc3c(c2)nc(CCNC(=O)c2ccco2)n3C)c1	·	·	-0.5	?	·	40
CC1CC1c1ccc(/C=C(\C#N)C(=O)Nc2ccccc2Cl)o1 (stereo unspecified)	1.7	7	1.4	0.6%	2	15
COC(=O)[C@H](Cc1ccccc1)NC(=O)NCc1ccc(C)cc1	-2.1	-13	0.6	-0.4%	7	15
CCc1nc2ccc(C(=O)N3CCN(C)CC3)cn2c1N(C)CCC(C)C	-2.7	5	0.1	0.9%	6	·
Cc1ccc(C)c(CN2C(=O)c3ccccc3S(=O)(=O)c3ccc(C(=O)N4CCOCC4)cc32)c1	·	·	5.2	-0.3%	·	-5
CCC(=O)N1Cc2cc(C(=O)Nc3nccs3)nc(-c3cccc(-c4ccccc4OC)c3)c2[C@H]1CCO	·	?	-0.3	2.1%	?	·
CCCCC(=O)Nc1cc2nn(-c3ccc(OC)cc3)nc2cc1C	-1.9	0	0.8	15%[38.3 µM]	2	-5
CCN1CCN(C(=O)c2ccc3c(=O)n(Cc4ccccc4OC)c(=S)[nH]c3c2)CC1	-3.3	-4	-0.5	5.7%[38.3 µM]	-2	4
COC(=O)c1ccc(OC(=O)CN2C(=O)c3ccccc3C2=O)cc1	3.1	·	·	1.8%	0	·
CSCCC(NC(=O)OCc1ccccc1)NC(=O)OCc1ccccc1	6.1	6	-0.9	-0.3%	1	·

# 2 records drawn at random from the list so far, as already listed:
Structure	D2 ag	CtBP-E1A blk	TRPML1 ag	PINK1 modulator	Six1-Eya2 blk	TRPML1 inh
O=C(NNC(=S)NC(=O)c1cccnc1)c1ccccc1	-4.3	-10	-0.1	0.0%	-5	17
COC(=O)[C@H](Cc1ccccc1)NC(=O)NCc1ccc(C)cc1	-2.1	-13	0.6	-0.4%	7	15

# New compounds follow:
Structure	D2 ag	CtBP-E1A blk	TRPML1 ag	PINK1 modulator	Six1-Eya2 blk	TRPML1 inh
CCC(C)NC(=O)c1cc(-c2ccc(OC)cc2)on1 (stereo unspecified)	-0.1	7	0.0	-2.1%[38.3 µM]	-1	14
O=C(CNC1C(=O)Nc2ccccc21)Sc1ccccc1 (stereo unspecified)	-3.8	4	0.0	0.1%	1	-6
CCc1cc(-c2n[nH]c(=S)n2Cc2ccccc2)cs1	2.0	-11	2.5	4.2%	-5	28
CCOC(=O)N1CCN(C(=O)c2ccc(Oc3ccc([N+](=O)[O-])cc3)cc2)CC1	1.4	3	1.5	-0.8%	5	2
CC(OC(=O)C1CC(=O)N(Cc2ccccc2)C1)C(=O)Nc1ccccc1[N+](=O)[O-] (stereo unspecified)	3.0	3	-0.9	4.0%	0	-11
CCOC(=O)c1ccc(NC(=O)CN2C(=O)NC3(CCC(C)CC3)C2=O)cc1 (stereo unspecified)	-0.6	22	-0.3	1.7%	-3	8
Cn1c(=S)n(CCC(=O)O)c2ccccc21	0.9	·	-0.2	3.7%	5	4
CCn1c(NCc2ccc3c(c2)OCO3)nc2ccccc21	-5.1	-6	1.1	0.5%	0	1
COCCN1CC(C(=O)NCc2ccccc2-n2ccnc2C)CCC1=O (stereo unspecified)	-3.6	17	0.1	0.9%	3	7
Cc1cccc(S(=O)(=O)N(C)C[C@H]2OCc3cn(nn3)CCCC(=O)N([C@@H](C)CO)C[C@@H]2C)c1	0.6	7	·	-0.5%	4	·
CC(C)(C)Nc1nc(SCC(=O)Nc2ccccc2)nc(N2CCOCC2)n1	0.8	-12	1.0	-0.9%	-13	19
COc1ccc(CCNC(=O)C2CC2)cc1	-7.0	-11	1.3	2.0%	10	-3
O=C(Cc1ccc(NC(=O)N2CCCCc3ccccc32)cc1)NCc1ccccc1	·	·	0.1	4.6%	·	18
COc1ccc2[nH]c(=O)c(CN(c3ccccc3)S(=O)(=O)c3ccccc3)cc2c1	-1.3	-4	1.7	9.2%	1	-9
O=C(Nc1c2c(nn1-c1ccc([N+](=O)[O-])cc1)CS(=O)(=O)C2)c1cccs1	-0.8	-5	-1.2	20%	-5	38
c1ccc2oc(-c3csc(NCC4CCCO4)n3)cc2c1 (stereo unspecified)	-3.3	1	-1.2	0.2%	-7	12
CC1CCCC(C)N1C(=O)COC(=O)c1ccc(O)cc1 (stereo unspecified)	-5.2	35	-0.6	0.7%	25	10
O=C(c1cc2ncccn2n1)N1CCc2c([nH]c3ccccc23)C1c1ccccc1F (stereo unspecified)	-4.3	-12	-0.1	-0.4%	-12	-5
Cc1cc(C)cc(-n2ccn(Cc3ccc(F)cc3)c(=O)c2=O)c1	·	·	-0.4	1.0%	·	18
CCc1ccc(NC(=O)NCC2CCN(Cc3cccc(Cl)c3)CC2)cc1	-7.9	·	1.1	18%	-6	42
CCCOc1ccc2ccccc2c1/C=C1\SC(=O)NC1=O	-1.2	·	·	1.6%	-2	·
CC1CCc2onc(C(=O)N3CCN(c4ccccc4)CC3)c2C1 (stereo unspecified)	·	·	0.5	19%	·	-4
Cc1ccc2nc(-c3ccc(S(=O)(=O)N4CCCCC4)cc3)cn2c1	-3.1	3	0.3	26%	3	20
CCn1c(=NC(=O)c2ccc(S(=O)(=O)N3CCCCC3)cc2)sc2cccc(OC)c21	·	·	-0.2	-0.1%	·	5
Cc1nn(CC(=O)Nc2cccc(O)c2)c(=O)c2ccccc12	-3.4	-6	0.8	1.5%	-2	-10
CCCCn1c(N)c(N(CCC(C)C)C(=O)C(C)N2C(=O)c3ccccc3C2=O)c(=O)[nH]c1=O (stereo unspecified)	6.3	-13	1.6	-2.0%	2	48
COc1ccc(/C=C(/NC(=O)c2ccccc2Cl)C(=O)NCCCC(=O)O)cc1	-1.5	5	-0.3	0.3%	5	-12
CCc1cc(-c2n[nH]c(C)c2-c2nc3ccccc3n2C)c(O)c(CN2CCN(C)CC2)c1O	-2.4	-21	0.7	-0.6%[38.3 µM]	-13	3
CN1C(=O)Cc2cc(S(=O)(=O)NCc3ccccc3Cl)ccc21	·	·	-0.1	3.5%	·	12
OCCCNc1ncnc2[nH]ncc12	0.4	1	0.7	-0.9%	9	8
O=C(NCCc1ccccc1)c1ccco1	3.1	-3	-0.4	0.8%	8	16
O=C(/C=C/c1cccc(F)c1)OCC(=O)N1CCc2ccccc21	11	·	0.7	9.8%	-1	7
Cc1cccc(C)c1NC(=O)C1(N2CCN(C(=O)c3ccco3)CC2)CCCCC1	2.4	16	1.4	-1.8%	7	16
Cc1[nH]c2ccccc2c1/C=N/NC(=O)CCC(=O)NCc1ccccc1	-2.6	-9	1.5	1.2%	-4	-15
O=C(Cn1cc(C(F)(F)F)cc(Cl)c1=O)NCCc1ccc(Cl)cc1Cl	-0.4	0	·	-0.4%	19	·
Cc1cccc(Nc2nnc(-c3ccc(C)c(S(=O)(=O)N4CCOCC4)c3)c3ccccc23)c1	·	·	-1.3	1.4%	·	-2
COC(=O)C1=C(N)Oc2cc(C)n(CC3CCCO3)c(=O)c2C1c1ccc(Cl)cc1 (stereo unspecified)	-2.9	3	-1.5	1.1%	0	-8
COCCCN1C(=O)C(=O)/C(=C(/O)c2ccc(OC(C)C)c(C)c2)C1c1ccncc1 (stereo unspecified)	-3.4	-2	-0.5	1.1%	7	-4
CC(=O)Nc1ccccc1OCC(=O)NCCc1ccc(Cl)cc1Cl	3.8	12	0.5	2.1%	5	12
CCN(C(=O)COC(=O)CSc1ccc(C)cc1C)c1c(N)n(Cc2ccccc2)c(=O)[nH]c1=O	-5.2	·	-0.5	1.7%	2	5

# Among those listed so far, these have an aryl thioether with sulfur outside any ring:
Structure	D2 ag	CtBP-E1A blk	TRPML1 ag	PINK1 modulator	Six1-Eya2 blk	TRPML1 inh
CC(C)(C)Nc1nc(SCC(=O)Nc2ccccc2)nc(N2CCOCC2)n1	0.8	-12	1.0	-0.9%	-13	19
CCN(C(=O)COC(=O)CSc1ccc(C)cc1C)c1c(N)n(Cc2ccccc2)c(=O)[nH]c1=O	-5.2	·	-0.5	1.7%	2	5

# Next part.
Structure	D2 ag	CtBP-E1A blk	TRPML1 ag	PINK1 modulator	Six1-Eya2 blk	TRPML1 inh
CSCC[C@H](N)C(=O)NCC1CCC(C(=O)Nc2ccc3c(c2)OCO3)CC1 (stereo partly specified)	-2.8	-2	·	-0.6%	-1	·
Fc1cccc(F)c1[B-](F)(F)F	-0.4	1	1.0	-0.4%	24	-20
Cc1ccc(S(=O)(=O)N2CCOCC2)cc1NC(=O)COc1ccc2c(C)cc(=O)oc2c1	-0.7	0	0.1	-1.7%	-2	-6
CCC(=O)N1c2ccccc2C(N(C(C)=O)c2ccccc2)CC1C (stereo unspecified)	-3.9	3	0.4	-1.2%	4	-24
CC1(C)Cc2noc(N)c2C(C)(C)N1OC(=O)c1ccccc1	5.0	2	-0.8	0.8%	0	-3
O=C(CCC(=O)N1CCOc2ccccc21)NC1CCCCCC1	-1.8	1	0.2	1.8%	0	2
CC1CCN(Cc2nnnn2-c2cccc([N+](=O)[O-])c2)CC1	-0.3	2	0.7	0.3%	-8	2
COc1ccc(C)cc1S(=O)(=O)N1c2ccccc2CC1C (stereo unspecified)	-0.4	9	1.4	-4.7%[38.3 µM]	3	-11
COc1cc(NC(=O)C2CCCCC2)c(OC)cc1NC(=O)c1ccco1	-2.5	-8	3.6	0.9%	-6	-14
Cc1ccc(S(=O)(=O)N2CCN(c3nc(C(C)C)c4c(c3C#N)CC(C)(C)OC4)CC2)cc1	0.1	-6	7.0	1.3%[38.3 µM]	-5	-11
O=C(CSc1ccccn1)Nc1cccc(S(=O)(=O)N2CCCC2)c1	1.6	-18	1.6	0.8%	1	6
COc1ccc(/C=C/C(=O)O)cc1S(=O)(=O)N1CCc2ccccc21	-3.8	-12	-0.9	1.7%	-22	13
